# AmpC inh no det: AmpC beta-lactamase inhibition, detergent-free assay; AmpC nitrocefin hydrolysis, absorbance 480 nm, no detergent; potencies from a single point are estimates; Potency, µM (series often up to 28.7 µM), for the others: at the highest dose activity change, negative = inhibition; 71,000 tested, 1.8% active; active = falling curve, for most hits resting on a single point; inconclusive = weak or doubtful change; inactive = flat or rising curve; further: % of control where 0% means no effect; about half of the hits show no inhibition at the top dose; a quarter of the inactives give rising signals
# Target sequence (P00811 whole entry, looked up): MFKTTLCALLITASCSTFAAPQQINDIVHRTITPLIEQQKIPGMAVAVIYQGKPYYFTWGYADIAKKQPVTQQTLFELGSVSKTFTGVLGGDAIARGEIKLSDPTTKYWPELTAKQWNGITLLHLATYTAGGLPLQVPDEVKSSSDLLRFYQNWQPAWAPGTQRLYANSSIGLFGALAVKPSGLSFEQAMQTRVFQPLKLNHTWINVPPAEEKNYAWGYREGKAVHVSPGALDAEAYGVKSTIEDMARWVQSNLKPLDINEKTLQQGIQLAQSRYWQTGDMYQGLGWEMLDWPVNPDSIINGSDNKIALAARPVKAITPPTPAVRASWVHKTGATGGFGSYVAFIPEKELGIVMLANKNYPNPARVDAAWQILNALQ
#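 AmpC, 20 mM phosphate pH 7.0; 15 min cpd preinc, RT; start with nitrocefin (800 uM stock); A480 kinetic read, 20 s intervals, 4 min. No-enzyme wells = negative control.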
# Starred values were filed as active, the others as inactive; ? = inconclusive; & = joins results of further samples; ! = repeats disagree; [ ] = another dose, or the depositor's remark. Potency means the concentration at half of the fitted maximal effect. A portion of the library; the hit share may differ from the screen's.
Molecule,AmpC inh no det
O=C(OCN1C(=O)c2ccccc2C1=O)c1ccccc1,4%
Cc1cc2ccc(C)c(C)c2nc1SCC#N,-22%
CC1(c2ccc3noc(-c4ccc(Cl)cc4)c3c2)OCCO1,4%
O=C(CN1C(=O)NC2(CCCc3ccccc32)C1=O)N1CCN(C(=O)c2ccco2)CC1 (stereo not drawn),18%
OCC1CCCN(Cc2ccc(-c3ccccc3)cc2)C1 (stereo not drawn),14%
O=C(c1c(Cl)cccc1Cl)N1CCN(c2ccccn2)CC1,20%
CCC(NC(=O)OC(C)(C)C)C(=O)Oc1ccc2c3c(c(=O)oc2c1)CCC3 (stereo not drawn),44%
COc1ccccc1-c1cc(C(=O)NCc2ccc(Cl)cc2)no1,?
COc1ccc(Cc2nnc3c4cnn(C)c4ncn23)cc1,1%
O=c1c2c(nc3c(-c4ccc(Cl)cc4)c[nH]n13)CCCC2,-14%
CCOC(=O)c1c(N)n(Cc2ccco2)c2nc3ccccc3nc12,-3%
Cc1occc1-c1nnc(SCC(=O)N2CCOCC2)n1CCc1ccccc1,46%
Cc1cccc(-n2c(SCC(=O)NCc3ccco3)nnc2-c2ccco2)c1,17%
O=C(CN1CCc2ccccc21)NC(=O)NCc1ccco1,-13%
CC(=O)Nc1ccccc1Sc1ccccc1,-9%
CC1=NCC[N@@+]1(CCc1ccccc1)Cc1ccccc1,14%[5.75 µM]
Brc1cccc(-c2nnc3n2CCC3)c1,-3%
Cc1ccc(C(=O)C(C)OC(=O)C2CC(=O)N(C3CCCCC3)C2)cc1 (stereo not drawn),81%
CCCOc1ccc(C(=O)c2nc3c(n2O)CCCC3)cc1,1%
O=C(COC(=O)C1CCC1)NCc1ccccc1Cl,-6%

# The listing continues.
Molecule,AmpC inh no det
CC12CN3CC(C)(CN(C1)C3c1cc3ccccc3[nH]1)C2=O (stereo not drawn),53%
COc1ccc2nc3c(c([Si](C)(C)C(C)(C)C)c2c1)Cn1c-3cccc1=O,-4%
O=C(COc1ccc(Cl)cc1Cl)Nc1ccc2nc3n(c(=O)c2c1)CCCC3,118%
S=C(S)O[C@@H]1C[C@@H]2C[C@H]1[C@@H]1CCC[C@H]21,16µM*!
COc1ccc(CN2CC(C(=O)NCCN3CCN(c4ccccc4F)CC3)CC2=O)cc1 (stereo not drawn),99%
Cc1ccc(NCc2nc3ccccc3n2C)cc1,4%
CCC(C(=O)NC1CCCC1)N(C(=O)Cn1nnc(-c2ccc(C)o2)n1)c1cnc2ccccc2c1 (stereo not drawn),85%
COC(=O)c1ccc(NS(=O)(=O)N(C)C)cc1,-14%
COc1cccc(Cn2c(=O)c(-c3cc(F)cc(F)c3)nc3cnc(N(C)C)nc32)c1,1%
CCCC[C@@H]1C[C@H]1C(NC(=O)c1cccs1)c1ccccc1C(F)(F)F (stereo partly drawn),-11%
Clc1ccc2nc(SCc3nnc(-c4ccccc4)o3)[nH]c2c1,-4%
CCCOC(=O)C1=C(C)NC2=C(C(=O)CCC2)C1c1cc(OC)ccc1OC (stereo not drawn),25%
COc1ccccc1-c1nnc(N(C)C(=O)C2CCCO2)s1 (stereo not drawn),33%
O=C(Nc1cc(Cl)ccc1O)C1CCCO1 (stereo not drawn),7%
CCCC(=O)Nc1nc2ccc(OC)cc2s1,-6%
CCOC(=O)c1cc2c(=O)n3ccccc3nc2n(CC(C)C)c1=NC(=O)c1ccco1,73%
CC(C)C1Oc2ccccc2N(CC(=O)NCCCN2C(C)CCCC2C)C1=O (stereo not drawn),30%
OC[C@@H]1O[C@H](O)[C@@H](Cl)[C@H](O)[C@@H]1O,6%
COc1ccccc1N(CC(=O)Nc1c(C)cccc1C)S(C)(=O)=O,12%
Cc1cnc(CNc2cc(-c3ccoc3)ncn2)cn1,49%

# (further entries)
Molecule,AmpC inh no det
O=C(CCCCCN1C(=O)CCC1=O)Nc1ccc2c(c1)OCO2,5%
O=C(OCc1cc2ccccc2[nH]c1=O)c1ccccc1,-6%
O=C(CSc1nnc(CNc2ccc(Cl)cc2)o1)Nc1nc2c(s1)CCCC2,-6%
CCOC(=O)c1c(C)n(Cc2ccccc2)c2ccc(OCC(O)Cn3nc(C)nc3C)cc12 (stereo not drawn),178%
Cc1cc(C)c(OCC(=O)Nc2ccccc2N2CCOCC2)c(C)c1,22%
O=C(CCCC(=O)N1CCCc2ccccc21)N1CCCc2ccccc21,72%
CCOc1ccc(C(CC(=O)O)NC(=O)c2ccco2)cc1OC (stereo not drawn),-14%
O=C(Nc1ccc(NC(=O)c2ccco2)nc1)c1cccnc1,-8%
CCOc1cc(C2c3c(oc4cc(C)c(Cl)cc4c3=O)C(=O)N2Cc2ccco2)ccc1O (stereo not drawn),4%
Nc1nnc(SCCOc2ccc(Br)cc2)s1,-18%
Cc1ccc(NC(=O)C2C(=O)N(CCO)C3(C)CC2c2ccccc2O3)cc1 (stereo not drawn),12%
COc1ccccc1NC(=O)N(Cc1ccco1)Cc1cc2cccc(C)c2[nH]c1=O,27%
CCN(CC)c1ccc(-c2c(C#N)c(N)nc(OC)c2C#N)cc1,0%
c1ccc(-n2ncc3c(NCc4ccccn4)ncnc32)cc1,28%
CC1(C)Cc2cccc(OCC(=O)N3CCN(S(=O)(=O)c4ccc(F)cc4)CC3)c2O1,103%
O=C(CSc1nnc(-c2cccnc2)n1Cc1ccco1)NCc1ccc2c(c1)OCO2,6%
CCN1CCN(C(=O)c2oc(=O)c3ccccc3c2-c2ccc(C)cc2)CC1,78%
CC1(C)C2CC=C(CN3CCOCC3)C1C2 (stereo not drawn),-4%
CCc1nc(N2CCCC2C(=O)O)c2oc3ccccc3c2n1 (stereo not drawn),-10%
CC1CCc2cc(F)ccc2N1C(=O)CSc1nnc(-c2cccs2)n1C (stereo not drawn),32%

# The results go on:
SMILES,AmpC inh no det
NS(=O)(=O)c1ccc(NC(=O)CN2CCCCC2)cc1,2%
COC(=O)[C@H](C)NC(=O)Nc1cc(OC)ccc1OC,-10%
COc1ccc(N2CCN(C(=O)CSc3ncnc4c3cnn4-c3ccccc3C)CC2)cc1,35%
O=C(OCC(=O)N1CCN(C(=O)c2ccco2)CC1)c1ccccc1Cc1ccccc1,114%
CC(=O)c1ccc(OC(=O)c2cccs2)cc1,-1%
Cc1cc(C)c2c(n1)nn1c(N3CCN(c4ccccc4)CC3)cc(C)nc21,18%
COCCn1c(SCC(=O)NCc2cccs2)nnc1-c1ccc(OC)cc1,0%
COC(=O)C1=C(CN2CCN(C)CC2)NC(=O)NC1c1cc(C)ccc1C (stereo not drawn),12%

# New compounds follow:
SMILES,AmpC inh no det
CS(=O)(=O)N1CCC2(CC1)CN(Cc1cc(C(F)(F)F)cc(C(F)(F)F)c1)C2,63%
O=c1cccc2n1CC1CC2CN(c2ncnc3c2cnn3-c2ccccc2)C1 (stereo not drawn),19%
COc1cccc(-c2nc(NC3CCNCC3)c3ccccc3n2)c1,15%
O=C(CN1CCCCC1)Nc1cccc(Br)c1,-2%
COc1ccc(OCCn2c(=N)n(CCO)c3ccccc32)cc1,-6%
C=C(CC)C(=O)c1ccc(OCC(=O)O)c(Cl)c1Cl,-6%
COc1ccc(N2CCN(c3oc(-c4ccco4)nc3C#N)CC2)cc1,46%
COc1ccc2c(CC(=O)OCC(=O)N3CCc4ccccc43)coc2c1,-18%

# In another format: results already given
O=C(CN1CCCCC1)Nc1cccc(Br)c1
- AmpC inh no det: -2%

COc1ccc(OCCn2c(=N)n(CCO)c3ccccc32)cc1
- AmpC inh no det: -6%

C=C(CC)C(=O)c1ccc(OCC(=O)O)c(Cl)c1Cl
- AmpC inh no det: -6%

COc1ccc(N2CCN(c3oc(-c4ccco4)nc3C#N)CC2)cc1
- AmpC inh no det: 46%

# The list goes on:
SMILES,AmpC inh no det
COc1ccccc1NC(=O)C(CCS(C)(=O)=O)N1C(=O)c2ccccc2C1=O (stereo not drawn),2%
Cc1nn(-c2ccc(F)cc2)c2sc(C(=O)O)cc12,-7%
CCOc1ccc(N2C(=O)CC(NCCc3ccc(S(N)(=O)=O)cc3)C2=O)cc1 (stereo not drawn),6%
CN(C(=O)Cc1ccc(Cl)c(Cl)c1)[C@@H](CN1CCCC1)c1cccc(OCC(=O)O)c1,36%&15%
CC(CCc1ccccc1)NC(=O)C1CCCN(C(=O)c2cc3sccc3n2C)C1 (stereo not drawn),99%
COc1ccc(Cc2nnc(SCC(=O)NC3CCCCC3)n2C)cc1,-8%
CCCS(=O)(=O)N1CCN(C(=O)c2cc(OC)cc(OC)c2)CC1,13%
O=C(O)c1cccn1Cc1ccccc1F,-2%

# Fetched one by one from the entries so far:
SMILES,AmpC inh no det
CCOc1ccc(N2C(=O)CC(NCCc3ccc(S(N)(=O)=O)cc3)C2=O)cc1 (stereo not drawn),6%
CC(CCc1ccccc1)NC(=O)C1CCCN(C(=O)c2cc3sccc3n2C)C1 (stereo not drawn),99%
CCCS(=O)(=O)N1CCN(C(=O)c2cc(OC)cc(OC)c2)CC1,13%
COc1ccc(Cc2nnc(SCC(=O)NC3CCCCC3)n2C)cc1,-8%
CN(C(=O)Cc1ccc(Cl)c(Cl)c1)[C@@H](CN1CCCC1)c1cccc(OCC(=O)O)c1,36%&15%
COc1ccccc1NC(=O)C(CCS(C)(=O)=O)N1C(=O)c2ccccc2C1=O (stereo not drawn),2%
O=C(O)c1cccn1Cc1ccccc1F,-2%

# The list continues.
SMILES,AmpC inh no det
CCc1cccc(N(C)C(N)=Nc2cccc3ccccc23)c1,20%
Cc1ccnc(SCC(=O)Nc2oc(-c3ccccc3)c(-c3ccccc3)c2C#N)n1,?
Cc1cccc(N=C2NC(=O)/C(=C3/C(=O)N(C)c4ccccc43)S2)c1C,-9%
O=C1OC(NC(=O)c2ccccc2)C(N2CCOCC2)=C1Cl (stereo not drawn),-3%
COc1ccc(N2CCCn3c2nc2c3c(=O)n(Cc3ccccc3F)c(=O)n2C)c(OC)c1,112%
CC(=O)NC1CC2CCCC(C1)N2CC(=O)NCc1ccc(F)cc1 (stereo not drawn),-2%
Clc1ccccc1-c1nnc2sc(CCc3ccccc3)nn12,10%
OC1(c2cccc(C(F)(F)F)c2)CCNCC1,1%

# Remaining list, next part
SMILES,AmpC inh no det
CC(=O)N1CCC[C@@]2(CCN(c3ccccc3)C2)C1,-2%
CC1(C)C(=O)C2(CCCCC2)C(=O)OC1c1cccs1 (stereo not drawn),-8%
CCCCNc1c(C(=O)OCC)c(C)nc2c1cnn2CC,35%
Cc1ccc(CCN2CC(C(=O)NCCN3CCOCC3)CC2=O)cc1 (stereo not drawn),-3%
CC[n+]1c(-c2ccccc2)c2cc(N)ccc2c2ccc(N)cc21,18%
Cc1cc(NC(=O)c2ccc3nc(C)sc3c2)no1,-4%
COc1ccc(CN(CCN(C)C)Cc2ccccc2)c(OC)c1,36%
Cc1ccccc1C(=O)NCc1ccncc1,6%

# Other structures.
SMILES,AmpC inh no det
CSCC[C@H](NC(=O)Nc1ccc(C)cc1C)C(=O)O,-6%
CN(CC(=O)N1CCCCCC1)S(=O)(=O)c1ccc(Br)s1,33%
Cc1onc(-c2c(F)cccc2Cl)c1C(=O)OCn1nnc2ccccc2c1=O,24%
CCOC(=O)c1cccc(NC(=O)CSc2nnc(-c3cccnc3)n2C)c1,11%
CCS(=O)c1ccccc1C(=O)O (stereo not drawn),-3%
CCCNC(=O)CC1Sc2ccccc2NC1=O (stereo not drawn),-4%
CSc1nc(-c2ccco2)cc(-c2ccccc2)c1C#N,-19%
COC(=O)c1ccc(C(NC(=O)OCc2ccccc2)/C(I)=C/[C@@H](C)C(=O)Nc2ccccc2)cc1 (stereo partly drawn),-7%

# (list continues)
SMILES,AmpC inh no det
Cc1cc(C)n(-c2nc3ccccc3c(=O)n2OCC(=O)N(C)C)n1,0%
Cc1nnc(C)c2c(C)n(-c3ccc(Br)cc3)c(C)c12,-5%
Cc1nnc(NC(=O)C2CCCN(S(=O)(=O)c3ccccc3C(F)(F)F)C2)s1 (stereo not drawn),42%
Oc1ccc(Cl)cc1,1%
COCCNC(=O)C(c1ccccc1)N(Cc1cccs1)C(=O)Cn1nnc2ccccc21 (stereo not drawn),67%
CCc1nnc(NC(=O)CSc2nnc(COc3ccc(C)cc3)n2-c2ccccc2)s1,46%
CCCSc1nc(N)cc(=O)[nH]1,-11%
Cc1ccc(C(C(=O)NCc2ccco2)N(Cc2ccco2)C(=O)CNC(=O)c2ccco2)cc1 (stereo not drawn),32%

# The list goes on.
SMILES,AmpC inh no det
Cc1ccc(C)n1-c1ccc(N2CCOCC2)nc1,24%
CCNc1nc(Oc2ccc(C(=O)OC)cc2)nc(SC)n1,0%
Nc1nonc1C(=O)NCCNCc1cc(Br)ccc1OCc1ccc(F)cc1,-17%
O=C(Nc1sc2c(c1C(=O)NCc1cccnc1)CCCC2)c1ccco1,96%
CCc1ccc(CNc2ccc(O)cc2)cc1,-5%
CCOc1ccc(CNC(=O)C2CCN(S(=O)(=O)N3CCCC3)CC2)cc1OC,27%
Cc1ccc2c(c1)C1CN(C)CCC1N2C(=O)Cc1cccs1 (stereo not drawn),22%
O=C(NCCc1ccc(Cl)cc1)C1CCN(S(=O)(=O)N2CCCCC2)CC1,7%

# Other entries follow.
SMILES,AmpC inh no det
CN/C(=C\[N+](=O)[O-])NCCSCc1ccc(CN(C)C)o1,6%
O=C(NCC1CCCO1)c1ccc(C(=O)NCC2CCCO2)cc1 (stereo not drawn),-11%
CCOc1ccc(-n2ccnc2SCC(=O)Nc2nnc(CC)s2)cc1,17%
CSc1nc2ccc(Nc3nc(N4CCOCC4)nc(N4CCOCC4)n3)cc2s1,39%
COc1ccc(C(=O)Nc2ccc(-c3cn4ccsc4n3)cc2)cc1S(=O)(=O)N1CCOCC1,95%

# Bioassay records as filed in PubChem BioAssay.
